Screening data as filed in PubChem BioAssay.
StopGo RLuc – FMDV 2A StopGo reporter, Renilla signal | HEK cells with a luciferase reporter of 2A StopGo recoding | Potency, µM (doses to about 57.5 µM), for inactives: top-dose signal change, negative = less light | hit rate 0.32% among 120,000; active means well fitted falling curve with a large enough effect; inconclusive means small, poorly fitted or top-dose-only effect; inactive means no such curve, though single readings can be large or run the other way; further: nearly all actives have a fitted effect of over 55% in size; overnight with compound
StopGo FLuc – FMDV 2A StopGo reporter, firefly signal; AID 1745856; Potency, µM (highest dose often 57.5 µM), without a hit: top-dose signal change, negative = less light; hit rate 0.23% among 120,000; HEK cells with a luciferase reporter of 2A StopGo recoding; active = well fitted falling curve with a large enough effect; inconclusive = small, poorly fitted or top-dose-only effect; inactive = no such curve, though single readings can be large or run the other way; further: nearly all actives have a fitted effect of over 60% in size; overnight with compound
Starred values were filed as active, the others as inactive; u = inconclusive; & = joins results of further samples; [ ] = another dose, or the depositor's remark. On the % scale 0 is the no-effect control and ±100 the full control effect; potency means the concentration at half of the fitted maximal effect. The list is partial. The share of hits here may be higher or lower than overall.

SMILES	StopGo RLuc	StopGo FLuc
Cc1ccc(S(C)(=O)=O)cc1NCc1ccc(F)cc1Br	16%	1%
O=C(CSc1ncc(C(F)(F)F)cc1Cl)c1ccc(Br)s1	34%[activator]	196%[activator]
COc1ccc(-c2noc(CC(=O)Nc3ccc(Br)cc3C)n2)cc1	-12%	-15%
CCNc1c(NS(=O)(=O)c2ccc(N3CCCC3=O)cc2)c(=O)oc2ccccc12	-3%	-3%
Cc1ccc(C)c(NC(=O)CN(Cc2ccccc2)S(=O)(=O)c2ccc3nc(C)sc3c2)c1	2%	-9%
Cc1ccc2c(=O)cc(C(=O)N(Cc3ccccc3Cl)C3CCS(=O)(=O)C3)oc2c1C (stereo not given)	7%	-12%
COc1ccc(/C=C(/C#N)c2ccc(C(F)(F)F)cn2)cc1	11%	15%
COc1cccc(CNC(=O)CN2C(=O)N(c3cccc(Cl)c3)S(=O)(=O)c3ccccc32)c1OC	42%[activator]	-17%
Cc1ccc(C(=O)c2cn(Cc3ccccc3)c3cc4c(cc3c2=O)OCCO4)cc1	18%	-11%
CC(=O)c1ccc(N2CCN(c3nc4ccccc4c4nc(-c5cccc(C)c5)nn34)CC2)cc1	-4%	26%
COc1ccc(-n2c(=O)c3c4c(sc3n3cnnc23)CCC4)cc1	-4%	0%
Cc1cc(C)cc(-n2c(C)nc3cc(C(=O)NCc4ccc(F)cc4)ccc32)c1	20%	-3%
O=C(CNC(=O)c1ccc(F)cc1)OCc1cc(=O)n2nc(C3CC3)sc2n1	-2%&-12%	7%&-13%
O=C(CSc1ncc(S(=O)(=O)c2ccc(Br)cc2)c(=O)[nH]1)Nc1ccc2c(c1)OCCO2	-6%	7%
COc1ccccc1Nc1nc2ccccc2nc1NS(=O)(=O)c1ccc(C)cc1	7%	4%
COc1cccc(OCC(=O)NCCS(=O)(=O)N2CCN(c3ccccc3F)CC2)c1	-1%	-26%
CN(CC(=O)Nc1nccs1)S(=O)(=O)c1ccc(Cl)cc1	-12%	-1%
Cc1cccn2c(=O)c3cc(C(=O)NC(C)c4ccccc4)c(=N)n(CCOCCO)c3nc12 (stereo not given)	-1%	-8%
Cc1cc(Br)ccc1NC(=O)C1CCCCC1	12%	5%
O=C(Nc1ccccc1O)c1cc(=O)[nH]c2ccccc12	11%	-8%
CCOc1nc2ccccc2nc1N1CCC(C(=O)Nc2ccc(C(C)C)cc2)CC1	-7%	22%
O=C1NCCCCC1NC(=O)C1CCCO1 (stereo not given)	-4%	13%
COc1ccccc1NC(=O)CSc1nnc(C2CCCCC2)n1-n1cccc1	15%	11%
Cn1c(=O)[nH]c(=O)c2c1nc(NCCCO)n2CCO	9%	0%
CC(C)(C)C(=O)COC(=O)c1cc(-c2cccs2)nc2ccccc12	-5%	11%
SMILES	StopGo RLuc	StopGo FLuc
COc1ccc(CNC(=O)CSc2ccccc2C(=O)OCC(=O)C(C)(C)C)cc1	40%[activator]	35%[activator]
COc1ccccc1OCCSc1nc2ccccc2n1CC(=O)N1CCOCC1	-2%	93%[activator]
CCOC(=O)c1ccc(NC(=O)C(CC)Sc2nncn3c2cc2oc(C)cc23)cc1 (stereo not given)	-6%	24%
CCC(CO)Nc1cccc2c1S(=O)(=O)N(Cc1cn(Cc3ccc(F)cc3)nn1)Cc1ccccc1O2 (stereo not given)	220%[activator]	-2%
CCc1ccc(CNC(=O)CN2C(=O)CSc3c2c(C)nn3-c2ccccc2)cc1	-12%	-1%
O=C(Nc1ncn(Cc2ccccc2F)n1)c1cc(S(=O)(=O)N2CCCC2)c(Cl)cc1Cl	-4%	14%
COc1cccc(CNCCSc2nnnn2C)c1OCc1ccc(Cl)cc1	28%	-6%
O=C(/C=C/c1ccccc1)OCC#CCOC(=O)/C=C/c1ccccc1	-2%	15%
CC(C)(C)c1ccc(-c2nnc(SCC(=O)NCc3ccco3)n2Cc2ccco2)cc1	-13%	2%
CN(Cc1nc2ccccc2[nH]1)S(=O)(=O)c1ccccc1F	16%	47%[activator]
CCNc1nnc(SCC(=O)NC2CCCCCC2)s1	2%	7%
CCC(C(=O)Nc1ccc2c(c1)OCO2)n1nc(-c2cc(C)ccc2C)ccc1=O (stereo not given)	18%	-3%
CCOc1ccccc1CNC(=O)CCn1c(=O)c2cccn2c2ccc(F)cc21	-8%	-17%
Cc1ccc(S(=O)(=O)N2CCN(C(C(=O)NC3CC3)c3ccccc3)CC2)cc1 (stereo not given)	53%[activator]	42%[activator]
Cc1ccc(-c2cc(C(=O)Nc3nn[nH]n3)c3ccccc3n2)c(C)c1	-8%	20%
COc1cccc(CNC(=O)c2cc3c(-c4ccccc4F)nn(C)c3s2)c1	-7%	-11%
CN(C)C(CNCc1cccc(C#N)c1)c1ccccc1 (stereo not given)	4%	-2%
COc1ccc(N2CC(C(=O)Nc3ccccc3-c3nc(-c4ccc(C)cc4)no3)CC2=O)cc1 (stereo not given)	-3%	59%[activator]
O=C(NCc1ccc(F)cc1)c1cc(-c2ccncc2)nc2ccccc12	23%	8%
N#CC(C(=O)C1CCCCC1)c1nc2ccccc2s1 (stereo not given)	-7%[1.06 µM]	54%[activator]
Cc1ccc(C)c(N2CCN(CCCNC(=O)c3ccc4nc(N5CCC(C)CC5)sc4c3)CC2)c1	-8%	u
COc1cccc(-c2ocnc2C(=O)Nc2cc(Cl)ccc2OC)c1	-3%	-2%
CCOC(=O)N1CCN([C@H]2CS(=O)(=O)C[C@@H]2S(=O)(=O)c2ccc(C)cc2)CC1	-4%	-1%
COc1cccc(-c2nc(CS(=O)CC(=O)NCc3ccc(F)cc3)c(C)o2)c1 (stereo not given)	97%[activator]	8%
O=C(Nc1ccc(O)c(-c2nc3ccccc3o2)c1)c1ccc2c(c1)OCCO2	-15%	14%

Filtered by structure, those above with a Cl atom
SMILES	StopGo RLuc	StopGo FLuc
O=C(CSc1ncc(C(F)(F)F)cc1Cl)c1ccc(Br)s1	34%[activator]	196%[activator]
Cc1ccc2c(=O)cc(C(=O)N(Cc3ccccc3Cl)C3CCS(=O)(=O)C3)oc2c1C (stereo not given)	7%	-12%
COc1cccc(CNC(=O)CN2C(=O)N(c3cccc(Cl)c3)S(=O)(=O)c3ccccc32)c1OC	42%[activator]	-17%
CN(CC(=O)Nc1nccs1)S(=O)(=O)c1ccc(Cl)cc1	-12%	-1%
O=C(Nc1ncn(Cc2ccccc2F)n1)c1cc(S(=O)(=O)N2CCCC2)c(Cl)cc1Cl	-4%	14%
COc1cccc(CNCCSc2nnnn2C)c1OCc1ccc(Cl)cc1	28%	-6%
COc1cccc(-c2ocnc2C(=O)Nc2cc(Cl)ccc2OC)c1	-3%	-2%

Later entries:
SMILES	StopGo RLuc	StopGo FLuc
COc1ccc(Cl)cc1NC(=O)COc1ccccc1	5%	68%[activator]
O=C(NCCc1ccccc1)c1ccc(CS(=O)(=O)c2ccc(Cl)cc2)o1	2%	-9%
COC(=O)c1ccc(NC(=O)Cn2nc(C(=O)Nc3ccc(C)cc3)ccc2=O)cc1	-14%	-22%
Cc1cccc(NC(=O)Cn2nc3c4ccccc4n(Cc4ccccc4)cc-3c2=O)c1	3%	-10%
Cc1cccc(C)c1OCc1nnc(NC(=O)Nc2ccc(F)cc2)s1	-5%	0%
COc1cc2nc(C)sc2cc1OC	-10%[1.06 µM]	0%
Clc1ccc(SCc2nc(NC3CCCc4ccccc43)c3c4c(sc3n2)CCC4)cc1 (stereo not given)	-8%[1.06 µM]	12%
N#C/C(=C/c1ccc(Cl)cc1)C(=O)OCC(=O)N1CCCCC1	12%	13%
COc1cccc(/C=C(\C#N)c2nc3ccc(C)cc3[nH]2)c1OC	u	u
COCCN(CC(N)=O)S(=O)(=O)c1cc(F)ccc1F	-10%	-10%
COc1ccccc1-c1cc(COc2ccc(Cl)cc2Br)on1	12%	260%[activator]
CCC(C)NC(=O)CCCN1C(=O)CCn2nc(-c3cccn3C)cc21 (stereo not given)	-8%	-3%
CCN(CC)C(=O)c1sc2c(c1C)c(=O)n(-c1ccc(C)c(C)c1)c(=O)n2CC(=O)Nc1ccc(F)cc1	-5%	-14%
Cc1oc(-c2ccccc2)nc1CC(=O)NC1CCN(CC(N)=O)CC1	-13%	0%
COC(=O)c1cc(CNC(=O)Nn2cnc3ccccc32)ccc1OC	-24%	-10%
COc1ccc(NC(=O)c2ccco2)cc1NC(=O)c1c(OC)cccc1OC	28%	30%
CC(=O)c1nnn(-c2nc(N(C)C)nc(N(C)C)n2)c1C	8%	4%
COc1ccc(S(=O)(=O)Cc2nnnn2-c2ccc(Cl)c(Cl)c2)cc1	22%	-11%
O=C(Nc1ccccc1)c1cn(-c2ccccc2)nc1-c1ccccc1	56%[activator]	24%
CCc1ccc(NC(=O)c2cc(=O)c3cc(C)c(C)cc3o2)cc1	-12%	-7%
CC1=C(c2ccc(C)c(C)c2)S(=O)(=O)N=C1N1CCC(C(=O)NCCc2ccco2)CC1	74%[activator]	-3%
Cc1cc(F)ccc1NS(=O)(=O)c1cc(C(=O)O)cc2c1CCC2	45%[activator]	-1%
Cc1ccc(-c2c(CN3CCN(c4cccc(C)c4)C(C)C3)csc2C)cc1 (stereo not given)	-4%	-10%
Cc1nc(SCc2ccccc2)[nH]c(=O)c1CCC(=O)N1CCC(C)CC1	4%	1%
CC(C)OCCCNC(=O)c1cc(C2CC2)nc2ccccc12	-1%	-1%

A second format for some results above.
Each structure is followed by: StopGo RLuc	StopGo FLuc
- Cc1ccc(C)c(N2CCN(CCCNC(=O)c3ccc4nc(N5CCC(C)CC5)sc4c3)CC2)c1
 : -8%	u
- COc1ccc(-c2noc(CC(=O)Nc3ccc(Br)cc3C)n2)cc1
 : -12%	-15%
- Cc1ccc2c(=O)cc(C(=O)N(Cc3ccccc3Cl)C3CCS(=O)(=O)C3)oc2c1C (stereo not given)
 : 7%	-12%
- O=C(Nc1ncn(Cc2ccccc2F)n1)c1cc(S(=O)(=O)N2CCCC2)c(Cl)cc1Cl
 : -4%	14%

Molecules above with a CF3 group:
SMILES	StopGo RLuc	StopGo FLuc
O=C(CSc1ncc(C(F)(F)F)cc1Cl)c1ccc(Br)s1	34%[activator]	196%[activator]
COc1ccc(/C=C(/C#N)c2ccc(C(F)(F)F)cn2)cc1	11%	15%

Continuation.
SMILES	StopGo RLuc	StopGo FLuc
O=C(CSc1nc(C2CC2)n(-c2ccccc2)n1)N1CCN(c2ccccc2)CC1	4%	-8%
CC(=O)N1CCN(C(=O)c2cc(-c3ccc(C)o3)nc3ccccc23)CC1	0%	67%[activator]
CCOC(=O)c1nc(Nc2ccc(C(=O)OCC(C)C)cc2)c2ccccc2n1	-11%&-15%	-2%&-6%
CCOC(=O)c1cnc2cc(F)c(F)cc2c1Nc1ccccc1O	-10%	-6%
COc1ccc(Cl)cc1NC(=O)COC(=O)CCS(=O)(=O)c1ccc2ccccc2c1	-5%	-4%
CCN(C(=O)COc1ccc2c(=O)c(Oc3ccccc3)c(C)oc2c1)C1CCS(=O)(=O)C1 (stereo not given)	-3%	5%
CCOc1ccccc1NC(=O)Cn1c(=O)n(CCC(C)C)c(=O)c2cccnc21	-8%	-5%
CCCCn1cc(S(=O)(=O)c2ccc(OC)cc2)c(=O)c2cc(CC)ccc21	88%[activator]	-9%
O=C(c1ccc(C(F)(F)F)cc1)N1CCN(Cc2ccccc2)CC1	-9%	-11%
Cc1c(C)c2ccc(OC(C)C(=O)NCc3ccc(S(N)(=O)=O)cc3)cc2oc1=O (stereo not given)	9%	0%
Brc1ccc(CNc2n[nH]c(-c3cccs3)n2)cc1	0%	110%[activator]
CC(C)OCCCNc1nc2c(c(=O)n(Cc3ccccc3F)c(=O)n2C)n1C	-11%	-3%
Cc1c2cnn(-c3ccccc3)c(=O)c2c(C)n1CC(=O)NCCc1ccc(Cl)cc1	1%	-9%
O=C(NN(c1ccccc1)c1ccccc1)c1cccs1	8%	7%
CCOc1ccc(NC(=O)NCCn2nnc3cc(S(=O)(=O)N(C)C)ccc32)cc1	14%	-13%
O=C(Nc1cccc(S(=O)(=O)Nc2ccccc2F)c1)c1cncn1-c1ccc(F)cc1	234%[activator]	14%
COc1ccc(/C=N/OC(=O)COc2cc(C)cc(C)c2)cc1COc1ccc(F)cc1	-7%[1.06 µM]	13%
CN(C)Cc1nc(SCC(=O)Nc2ccc(F)c(F)c2)c2ccccc2n1	-14%	-11%
O=C(c1ccc(CS(=O)c2ccc(Cl)cc2)o1)N1CCN(c2ccccc2)CC1 (stereo not given)	-2%	-8%
CCc1ccccc1N(C)C(=O)c1nn(C)c2c1CSc1ccccc1-2	84%[activator]	22%
CCOC(=O)c1c(C)oc2nc(C)nc(NCc3ccccc3OC)c12	-13%&-3%	-7%&-5%
CC(C)(C)c1ccc(OCC(=O)N(Cc2ccco2)Cc2ccccc2F)cc1	30%	0%
CCOc1cc(C(=O)NNC(=O)C2CCCCC2)ccc1OC(F)F	4%[1.06 µM]	0%
CN(Cc1ccccc1)C(=O)CNC(=O)C1CCCN(S(=O)(=O)c2ccc(F)cc2)C1 (stereo not given)	10%	10%
COc1cc(OC)c(NC(=O)CSCc2cc(=O)n3ccc(C)cc3n2)cc1Cl	-14%	-4%
COc1ccc(NC(=O)c2ccc3c(c2)NC(=O)CS3)cn1	0%	68%[activator]
Cc1nc2cccnc2n1C1CCN(S(=O)(=O)c2ccc(Cl)cc2)CC1	2%	-9%
CC(C)c1ccc(NC(=O)CSc2ncc3c(n2)-c2ccccc2N(C)S3(=O)=O)cc1	-12%	-8%
COc1ccc(C)cc1CN(C)C(=O)Cc1n[nH]c(=O)c2ccccc12	41%[activator]	54%[activator]
